# Screens (PubChem BioAssay)
# Yeast UUG start = modulators of start codon recognition fidelity in yeast | S. cerevisiae UUG-firefly luciferase reporter, luminescence/redox ratio | activity score, % at 18.7 µM | actives 0.13% (n = 350,000) | AID 602363;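 active = replicate mean at a twofold rise or more, about +100% in these data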;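 also: firefly luciferase made from a UUG start codon reports start codon fidelity; reporter light over untreated wells divided by growth signal over untreated wells; some hits fall short of that in this replicate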
# PABP FP inh = blocks human PABP binding to poly(A) RNA | actives 1% (n = 290,000) | fluorescence polarization | AID 2014 | P11940 | inhibition, % at 35 µM;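 active = 50% or more with normal probe brightness, or confirmed in later tests; inconclusive = above 50% with abnormal brightness, or retests that disagree; inactive = below 50% or failed in later tests; about a fifth of its hits are not listed in these tables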;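 also: calls also rest on retests at 20 µM and on dose response follow-up; controls were probe without protein and protein plus probe with vehicle; some compounds called inactive have numbers as strong as hits; many hits fall short of the cut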
# CSC inhib = cancer stem cell inhibition. AID 2717. inhibition, % at 7.5 µM. actives 1.1% (n = 300,000). cancer stem cell-like cells viability, luminescence;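 active = mean at 75% or more and at least half the replicates too; inconclusive = mean and replicates disagree; tested in HMLE shEcad cells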;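 also: 0% = median of negative and 100% = median of positive control wells; the first replicate is given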
# HIV Env fusion = blocks HIV Env-driven cell-cell fusion. HeLa-JRFL Env/CEM21 cell fusion, luciferase. inhibition, % at 12.3 µM. actives 1.1% (n = 360,000);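 active = mean replicate inhibition score of at least 50 and every replicate individually at or above 50; inconclusive = only one of the two criteria met; inactive = mean below 50 and not all replicates reaching 50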;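 also: 0% = plate neutral controls and 100% = maraviroc near 300 nM; one replicate is shown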
# MT1-MMP act inh = blocks activation of human MT1-MMP; actives 0.061% (n = 360,000); HT1080 RFP-PRO-GFP cells, GFP/RFP ratio fluorescence, overnight; percent of plate control window, DMSO zero; GFP/RFP ratio change, % at 20 µM; P50281; AID 651647;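 active = GFP/RFP ratio change of at least 30% with cell ATP level not reduced by more than half and red fluorescence within 50% of control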; also: strong numbers were not always called active
#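 system = RFP-PRO-GFP reporter HT1080 cells | dosing = 20 µM single dose, 1% DMSO | timing = overnight cell settling, then overnight compound exposure, 37 °C, 5% CO2 | read-out basis = GFP/RFP fluorescence ratio | controls = DMSO and RFP-L50D-GFP cell wells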
# eIF4H FP inh = inhibitors of RNA binding by human eIF4H. Q15056. eIF4H fluorescence polarization binding assay. inhibition, % at 35 µM. actives 0.94% (n = 290,000). AID 2012;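 active = 50% or more with normal probe brightness, or confirmed in later tests; inconclusive = above 50% with abnormal brightness, or retests that disagree; inactive = below 50% or failed in later tests; about a fifth of its hits are not listed in these tables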;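 also: calls also rest on retests at 20 µM and on dose response follow-up; 0% = protein and probe with vehicle and 100% = probe without protein; strong numbers were not always called active; many hits fall short of the cut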
# Rce1 inh = blocks yeast Ras-converting enzyme; Q03530; yeast membranes, quenched prenylated peptide cleavage fluorescence; calls only; actives 0.27% (n = 290,000); AID 2563;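 active = fall in fluorescence gain of 50% or more versus controls, with final raw signal at or below 3038400; inconclusive = same 50% fall but final raw signal above 3038400; inactive = fall in fluorescence gain under 50%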;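 also: plate controls were neutral control wells for no effect and wells lacking membranes for full effect; tested at 10 µM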
# Target sequence (Q03530 whole entry, looked up): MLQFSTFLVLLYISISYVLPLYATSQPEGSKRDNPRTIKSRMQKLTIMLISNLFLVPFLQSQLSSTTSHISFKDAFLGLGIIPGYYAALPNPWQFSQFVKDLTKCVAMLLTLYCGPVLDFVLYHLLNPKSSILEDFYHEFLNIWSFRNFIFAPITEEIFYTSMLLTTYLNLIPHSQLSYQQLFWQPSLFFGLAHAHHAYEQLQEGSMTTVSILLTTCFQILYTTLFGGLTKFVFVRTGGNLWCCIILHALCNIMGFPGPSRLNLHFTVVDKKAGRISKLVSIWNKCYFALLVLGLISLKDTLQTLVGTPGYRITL
# PABP FP inh retest = further read-out of PABP FP inh, marked with its call; inhibition, %; compound at 20 µM; confirmation repeats;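 mean of two retest wells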
# MT1-MMP act inh RFP = recorded beside MT1-MMP act inh, whose call it bears; RFP signal change, %; measured here: RFP expression control read;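 0 = vehicle wells; hits needed this value within 50% of zero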
# * hit, by the source's call; i = inactive; u = inconclusive; x = not tested or not shown; + = active, no number; & = joins results of further samples.
SMILES,Yeast UUG start,PABP FP inh,CSC inhib,HIV Env fusion,MT1-MMP act inh,MT1-MMP act inh RFP,eIF4H FP inh,Rce1 inh,others
CC(=O)c1ccc(OC(NC(=O)c2ccco2)C(Cl)(Cl)Cl)cc1 (configuration not stated),x,-12.6,-14.0,x,2.2,7.3,-6.8,i,
CN1CCN(c2cc(N3CCCCCC3)c(F)cc2[N+](=O)[O-])CC1,x,-8.9,62.8,-48.7,4.0,0.7,-6.2,i,
CN1CC=C(c2c[nH]c3ccccc23)CC1,-19.4,14.6,-5.4,12.8,2.8,-9.2,-5.5,i,
Cc1c(N=Cc2c(O)n(Cc3ccc(F)cc3)c(=O)[nH]c2=O)c(=O)n(-c2ccccc2)n1C,-14.2,2.0,x,-2.8,1.9,3.5,-7.5,i,
COC(=O)C1=C(c2cccc(OC)c2OC)C[C@@H]2CC[C@H]1N2C(=O)NCc1ccc(C(F)(F)F)cc1,9.1,x,-10.3,-3.6,1.4,0.9,x,i,
O=C1CN=C(c2ccccc2)c2cc(Br)ccc2N1Cc1cc(=O)n2ccccc2n1,x,-5.1,2.2,-90.3,-2.1,1.5,-6.3,i,
C[C@@]12N[C@@H](Cc3ccccc31)c1ccccc12,-7.1&-4.3,x,-17.2,-9.2&3.8,-0.9&4.1,1.3&7.3,x,i,
COc1cccc(N2C(=O)/C(=C/c3ccc(C)o3)C(=O)NC2=S)c1,-23.6,12.0,0.9,-13.7,-5.2,15.7,3.0,i,
COc1ccc2ccccc2c1CNCCc1ccccc1,-12.5,8.4,-0.5,6.3,1.7,3.6,0.9,i,
FC(F)(F)c1cccc(NC2=NCCCS2)c1,-17.7,8.5,-4.2,-2.9,2.6,2.7,-0.7,i,
CN1CCN(c2ccc(C(N)=O)cc2[N+](=O)[O-])CC1,x,-6.0,-0.2,x,-0.1,3.9,-2.5,i,
CC(C)c1onc(C(=O)N2CCC3(CC2)OCCO3)c1[N+](=O)[O-],-39.9,4.8,-5.3,-6.1,-0.7,1.2,0.1,i,
COc1ccc(-n2c(=S)[nH]c3ccc(C)cc3c2=O)cc1,-13.8,x,x,1.0,9.4,5.5,x,x,
COC(=O)C1=C(c2cccc(OCc3ccccc3)c2)C[C@@H]2CC[C@H]1N2C(=O)NCc1ccc(Br)cc1,-14.3,x,30.0,0.2,-1.1,-12.5,x,x,
COc1cc(OC)c(OC)cc1CNCCc1ccc2c(c1)OCO2,-1.1,-0.7,-24.9,-57.1,0.8,1.0,-5.4,i,
Nc1cc(C(=O)Nc2ccc(Cl)cc2)ccc1N1CC2CC(C1)c1cccc(=O)n1C2 (configuration not stated),-22.1,5.2,0.1,-14.1,5.4,0.8,3.1,i,
C#CC1(O)CCC2C3CCC4=C/C(=N/OCC(=O)NCC(=O)NC(C(=O)O)C(C)C)CC[C@]4(C)C3CC[C@@]21C (some centres not stated),12.9,-5.7,-5.7,-74.9,-2.8,1.8,-10.6,i,
Cn1c(=O)cc(OCC(=O)N2CCC3(CC2)OCCO3)c2ccccc21,-2.9,-12.3,1.2,4.0,4.6,3.0,-1.9,i,
CCOC(=O)c1c(N)n(Cc2ccc(OC)cc2)c2nc3ccccc3nc12,x,11.6,x,x,x,x,0.8,i,
COc1ccc(-n2nc(C(=O)NCC(=O)N3CCC4(CC3)OCCO4)c3ccccc3c2=O)cc1Cl,1.0,-6.7,-2.1,-83.9,3.3,2.5,-7.0,i,
OCCNCCc1c[nH]c2ccc(OCc3ccccc3)cc12,-7.8,-8.7,-0.5,-3.7,-2.0,-0.8,-4.1,i,
CSc1nc2ccc(C)cc2c(=O)n1-c1cccnc1,x,1.5,-19.0,-3.8,1.1,-0.7,6.9,i,
CN1C2CCC1C(COC(=O)c1ccccc1)C(O)C2 (configuration not stated),-14.1,4.0,-5.7,7.4,2.7,3.4,7.2,i,
CC1CNCCN1c1ccc(Cl)cc1 (configuration not stated),-14.0,x,x,25.5,0.1,1.0,x,x,
O=C1CN=C(c2ccc(Br)cc2)c2c(sc3c2CCCC3)N1CCN1CCCCC1,-10.4,-41.0,12.1,14.6,-1.6,-13.6,-0.2,i,
COC(=O)C1=C(c2ccc(-c3ccccc3)c(F)c2)C[C@@H]2CC[C@H]1N2C(=O)N1CCC(C)CC1,-5.1,x,19.9,2.3,-4.4,-29.7,x,x,
Cc1ccsc1C(=O)C1CCCN(Cc2ccc(O)cc2)C1 (configuration not stated),x,-1.3,x,8.5,2.9,5.0,-1.7,i,
Cc1ccc2c(c1)=NC(=O)/C(=C/c1c(O)[nH]c(=O)[nH]c1=O)C=2,-6.7,7.0,-10.3,6.6,4.7,-0.6,-2.7,i,
c1cnc(N2CCNCC2)nc1,-15.4,9.8,-2.7,x,-1.3,2.7,-9.2,i,
CN1CCN(c2ccc([N+](=O)[O-])c(N/N=C3\CN4CCC3CC4)c2)CC1,-2.8,-15.0,-5.1,-18.4,4.2,-1.1,-5.6,i,

# Overlap with the part before: six compounds; new compounds follow.
SMILES,Yeast UUG start,PABP FP inh,CSC inhib,HIV Env fusion,MT1-MMP act inh,MT1-MMP act inh RFP,eIF4H FP inh,Rce1 inh,others
O=C1CN=C(c2ccc(Br)cc2)c2c(sc3c2CCCC3)N1CCN1CCCCC1,-10.4,-41.0,12.1,14.6,-1.6,-13.6,-0.2,i,
COC(=O)C1=C(c2ccc(-c3ccccc3)c(F)c2)C[C@@H]2CC[C@H]1N2C(=O)N1CCC(C)CC1,-5.1,x,19.9,2.3,-4.4,-29.7,x,x,
Cc1ccsc1C(=O)C1CCCN(Cc2ccc(O)cc2)C1 (configuration not stated),x,-1.3,x,8.5,2.9,5.0,-1.7,i,
Cc1ccc2c(c1)=NC(=O)/C(=C/c1c(O)[nH]c(=O)[nH]c1=O)C=2,-6.7,7.0,-10.3,6.6,4.7,-0.6,-2.7,i,
c1cnc(N2CCNCC2)nc1,-15.4,9.8,-2.7,x,-1.3,2.7,-9.2,i,
CN1CCN(c2ccc([N+](=O)[O-])c(N/N=C3\CN4CCC3CC4)c2)CC1,-2.8,-15.0,-5.1,-18.4,4.2,-1.1,-5.6,i,
COc1ccc(CNC(=O)CCC(=O)N2C[C@H]3C[C@H](C2)c2cccc(=O)n2C3)cc1,-9.0,-13.8,-1.9,x,0.5,2.4,-3.3,i,
Cc1ccsc1C(=O)C1CCCN(Cc2cc(C(C)C)n[nH]2)C1 (configuration not stated),7.3,-2.0,-10.4,0.4,-13.2,-2.0,-5.0,i,
O=C1NCN(c2ccccc2)C12CCN(C(c1nnnn1C1CCCC1)C1CC1)CC2 (configuration not stated),-13.5,x,x,16.4,-3.5,-9.5,x,x,
Cc1ccc(CNCCc2ccccc2F)cc1,x,-1.9,-1.1,-6.0,2.4,9.1,6.7,i,
COC(=O)C1=C(c2ccc(F)cc2OCc2ccccc2)C[C@@H]2CC[C@H]1N2C(=O)NCc1ccc(OC)c(OC)c1,-7.4,x,-10.6,-87.6,-2.1,-5.4,x,x,
CCC(C)n1c(O)c(/C=N/N2CCOCC2)c(=O)[nH]c1=S (configuration not stated),-12.7,5.3,-6.8,11.6,-3.9,2.7,2.9,i,
Cc1ccccc1NC(=O)N1Cc2ccccc2-n2nncc2C1,-2.4,x,x,26.2,3.3,-0.2,x,x,
CCN(CC)c1ccc(/C=C2\C(=O)NC(=S)N(C)C2=O)o1,-3.8,u,-13.2,-71.0,-111.9,6.1,u,i,
CC(C)N1C(=O)/C(=C/C=C/c2ccco2)C(=O)N(Cc2ccco2)C1=O,-32.0,u,47.0,-160.1,-28.5,76.8,u,i,
C/C(Cl)=C/CC1(CN2CCCC2=O)C(=O)NC(=O)NC1=O,5.9,-0.7,-3.8,x,2.3,1.7,-9.9,i,
C=C1N2CCC(CC2)C1(O)c1ccc(C)cc1 (configuration not stated),-13.3,-5.7,-9.1,-38.0,-3.9,0.8,-6.0,x,
Cc1cccc(C)c1-n1nnnc1C(C1CC1)N1CCC2(CC1)C(=O)NCN2c1ccccc1 (configuration not stated),-8.6,x,x,-3.3,4.2,-9.5,x,x,
O=c1c2ccccc2nc(-c2ccccc2Cl)n1-c1ccc(O)cc1,-5.0,7.7,9.6,-8.0,-2.9,-3.5,-9.3,i,
Cc1ccc(Sc2ccc(C=C3C(=O)N(C)C(=O)N(C)C3=O)o2)cc1,-15.2,118.3*,2.8,-47.3,49.6,64.3,u,i,PABP FP inh retest=77.1*
Fc1cccc(F)c1-c1nc(-c2ccc(Cl)cc2)no1,x,-7.1,6.1,-80.2,-1.3,-1.7,-1.7,i,
C=C1C(O)(c2ccccc2)C2CC[N+]1(C)CC2 (configuration not stated),-9.2,57.4*,-12.8,11.4,-2.0,-2.1,-8.4,i,
CNC(=O)O/N=C(\N)Cc1csc2ccccc12,x,-0.9,-5.8,2.1,7.5,5.8,3.2,i,
C/C(=N\NC(=O)c1ccccc1O)c1c(O)n(C2CCCCC2)c(=O)[nH]c1=O,-23.3,x,-6.7,4.7,-1.6,-0.4,x,i,
CC(=NCc1ccc2c(c1)OCO2)c1c(O)n(-c2ccccc2)c(=O)[nH]c1=O,x,-5.5,19.6,-9.9,2.0,-1.2,7.3,i,
Cc1ccc2cccc(OC(=O)N(C)c3ccccc3)c2n1,1.2,9.8,-2.1,x,2.0,1.0,-0.6,x,
CN1CCN(c2ccc3nccnc3c2)CC1,x,3.8,-22.9,-3.5,-2.0,-2.1,20.5,i,
COCCO[C@H]1CCC2C3CC=C4C[C@@H](O)CC[C@]4(C)C3CC[C@@]21C (some centres not stated),-12.7,x,2.4,11.2,9.8,-3.4,x,x,
Cc1ccc(CN2CCCC(C(=O)c3sccc3C)C2)o1 (configuration not stated),4.2,-9.7,-8.8,-9.7,-0.3,1.8,-8.5,i,
O=C(Nc1cccc(Cl)c1)N1C[C@H]2C[C@@H](C1)c1cccc(=O)n1C2,-6.8,12.5,-5.9,x,0.1,2.1,0.1,i,
O=C1N[C@H](Cc2ccccc2)C(=O)N2[C@@H]3[C@H](C[C@@H]12)c1ccccc1N3OOSc1ccccc1,-13.8,x,-7.5,13.6,-8.2,-5.7,x,i,
Cn1cc(C(=O)OCC(=O)NC2(C#N)CCCCC2)c2ccccc21,-4.1,x,x,0.8,0.8,-2.4,x,x,
Cc1oc(-c2cccs2)nc1CSCC(=O)N1CCC2(CC1)OCCO2,2.7,5.6,-7.7,-9.5,3.1,0.4,0.5,+,
Cc1ncc(CN2CCCC(C(=O)c3sccc3C)C2)s1 (configuration not stated),x,-5.5,3.1,7.2,-2.3,-4.9,-9.7,i,
O=P(OCC(F)(F)C(F)F)(N1CCCCC1)N1CCCCC1,-21.7,-7.4,5.4,-37.7,-1.4,-1.7,-12.6,i,
Nc1ncc([N+](=O)[O-])s1,-19.2,x,-7.0,x,-1.3,6.7,x,x,
O=S1(=O)CC2(N3CCOCC3)CCCCC21 (configuration not stated),-9.3,14.4,-18.1,x,2.7,4.7,5.6,i,

# 2 compounds picked at random from the list so far, as already listed:
SMILES,Yeast UUG start,PABP FP inh,CSC inhib,HIV Env fusion,MT1-MMP act inh,MT1-MMP act inh RFP,eIF4H FP inh,Rce1 inh,others
Cc1ncc(CN2CCCC(C(=O)c3sccc3C)C2)s1 (configuration not stated),x,-5.5,3.1,7.2,-2.3,-4.9,-9.7,i,
CNC(=O)O/N=C(\N)Cc1csc2ccccc12,x,-0.9,-5.8,2.1,7.5,5.8,3.2,i,

# An excerpt (hit frequency here may not be typical).
